Source: PubChem (National Center for Advancing Translational Sciences (NCATS))
ALDH1A1 block: blocks purified human ALDH1A1 activity | 220,000 compounds, 7.3% hits | Potency, µM (doses to about 75.3 µM), inactives show top-dose activity, negative = inhibition, usual class: inhibitors | Purified ALDH1A1, NADH fluorescence, propionaldehyde substrate | P00352; active = well fitted inhibition curve with a large enough effect, not every such curve was filed as active; inconclusive = small, poorly fitted or top-dose-only effect, or another doubt; inactive = no such curve, though single readings can be large or run the other way;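 also: plate controls were no enzyme wells and a reference inhibitor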
Target sequence (P00352 whole entry, looked up): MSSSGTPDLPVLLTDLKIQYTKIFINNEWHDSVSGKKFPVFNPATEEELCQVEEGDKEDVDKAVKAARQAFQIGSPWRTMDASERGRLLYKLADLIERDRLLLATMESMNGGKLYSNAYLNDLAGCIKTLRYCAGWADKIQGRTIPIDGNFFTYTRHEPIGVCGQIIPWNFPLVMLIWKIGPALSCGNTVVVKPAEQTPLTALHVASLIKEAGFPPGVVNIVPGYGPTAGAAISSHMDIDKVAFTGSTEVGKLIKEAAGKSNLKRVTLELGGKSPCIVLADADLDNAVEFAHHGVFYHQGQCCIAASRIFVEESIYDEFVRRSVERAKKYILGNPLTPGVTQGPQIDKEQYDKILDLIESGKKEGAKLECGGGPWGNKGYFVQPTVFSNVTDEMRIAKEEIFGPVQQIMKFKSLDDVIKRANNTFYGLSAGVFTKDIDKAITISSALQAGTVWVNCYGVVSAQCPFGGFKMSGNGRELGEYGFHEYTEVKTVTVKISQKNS
HTT aggregate: inhibitors of mutant huntingtin aggregate formation in PC12 cells. PC12 HttQ103-GFP aggregates, Acumen cytometry, 40 h. Potency, µM (titrated, usually from 46.1 µM), for the others: at the top dose activity change, negative = inhibition, actives largely listed as inhibitors. 220,000 compounds, 1.1% hits. AID 1688; also: % is scaled to controls: 0 for no effect and ±100 for the full control effect; nearly all actives have a fitted effect of over 60% in size
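Huntingtin Q103 exon 1–GFP aggregates in induced PC12 cells (100 nM tebufenozide) were quantified by cytometry from lysates, with compounds dosed in titration.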
HTT cytoprotect: Huntington cell model cytoprotection by ATP luminescence; PC12 HTT-Q103 induced, cytoprotection, ATP luminescence, 40 h; Potency, µM (titrated, usually from 56.4 µM), without a hit: cytoprotection (ATP increase), hits mostly activators; 230,000 compounds, 0.14% hits;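 also: % of control where 0% means no effect; nearly all actives have a fitted effect of over 45% in size; toxic huntingtin expression switched on by the ecdysone agonist tebufenozide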
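Huntington model: PC12 line, ecdysone-inducible HTTQ103 exon1–GFP, tebufenozide 100 nM. Test articles in a dose series. Endpoint luminescence from cellular ATP.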
SMN2 splice up: enhancers of SMN2 splice variant expression; 210,000 compounds, 2.8% hits; AID 1458; Potency, µM (highest dose often 46.1 µM), without a hit: at the highest dose activity change, positive = activation, usual class: activators; HEK293 SMN2-luciferase splicing reporter, luminescence, 30-36 h; also: % of control where 0% means no effect; nearly all actives have a fitted effect of over 55% in size
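HEK293 cells carry an SMN2 […]–luciferase reporter in which exon 7 inclusion puts luciferase in frame. Cells were plated 10-12 h before compound addition, then incubated 30-36 h at 37C. ONE-Glo luminescence was read; sodium butyrate at 4.5 mM final served as control.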
Tau fibril ThT: inhibitors of human tau fibril formation, thioflavin T binding; P10636; recombinant tau K18 P301L, heparin-induced fibrillization, ThT fluorescence; Potency, µM (highest dose often 57.4 µM), for inactives: at the top dose activity, negative = inhibition, most hits filed as inhibitors; 270,000 compounds, 2.1% hits; also: % is scaled to controls: 0 for no effect and ±100 for the full control effect; nearly all actives have a fitted effect of over 55% in size
Target sequence (P10636 561-689 P618L limits assumed): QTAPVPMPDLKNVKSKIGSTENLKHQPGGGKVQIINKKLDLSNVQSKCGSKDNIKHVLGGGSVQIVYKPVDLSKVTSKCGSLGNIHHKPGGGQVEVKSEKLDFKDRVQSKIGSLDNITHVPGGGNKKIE
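Fibril formation assay: tau K18 P301L at 15 uM with trace Alexa 594 label, heparin inducer 20 uM, pH 7 sodium acetate buffer, 37 C for 6 hr; endpoint ThT signal.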
Tau fluor counter: counter-screen for tau fibril formation inhibitors | Potency, µM (top dose mostly 57.7 µM), for the others: at the highest dose activity change, negative = decrease | 280,000 compounds, 0.93% hits | tau K18 P301L Alexa594 fluorescence, heparin fibrillization | AID 1463; also: % is scaled to controls: 0 for no effect and ±100 for the full control effect; nearly all actives have a fitted effect of over 55% in size
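Human tau K18 P301L (15 uM unlabeled, 0.24 uM Alexa 594-labeled) in 100 mM sodium acetate pH 7 with 20 uM heparin, 6 hr at 37 C. ThT 30 uM added, 1 hr ambient; Alexa 594 FP and total fluorescence read at 555/632 nm.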
Tau fibril FP: tau fibrillization inhibition (FP) | P10636 | K18 P301L tau heparin fibrillization, Alexa594 FP, 6 h | Potency, µM (top dose mostly 57.7 µM), without a hit: at the top dose activity, negative = inhibition, most hits filed as inhibitors | 280,000 compounds, 0.39% hits | AID 1468; also: % is scaled to controls: 0 for no effect and ±100 for the full control effect; nearly all actives have a fitted effect of over 55% in size
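Read-out: fluorescence polarization of Alexa 594-labeled tau (0.24 uM), 555 nm excitation, 632 nm emission. Mixtures held 15 uM unlabeled K18 P301L, compound and 20 uM heparin, pH 7 acetate buffer, incubated 6 hr at 37 C.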
An asterisk follows results filed as active; u = inconclusive; x = not tested or not shown; & = joins results of further samples; ! = repeats disagree; [ ] = dose if it differs, or a comment. Unless noted, calls follow the shape of the dose curve; as a rule, active = well fitted curve in the direction sought with a large enough effect; inconclusive = small, poorly fitted or top-dose-only effect, or another doubt; inactive = no such curve, though single readings can be large; an effect the other way counts as inactive or inconclusive. Potency is read from the fitted curve at half-maximal effect. Not all compounds are listed (hit frequency here may not be typical).

SMILES	ALDH1A1 block	HTT aggregate	HTT cytoprotect	SMN2 splice up	Tau fibril ThT	Tau fluor counter	Tau fibril FP
Cc1ccc(S(=O)(=O)N(C)C)cc1N	-4%	-5%	-27%	9%	9%	9%	-6%
C=CCNCCOc1ccc(C)cc1[N+](=O)[O-]	u	-10%[9.22 µM]	24%[10 µM]	x	-8%	-9%	-12%
COC(=O)c1ccccc1NC(=O)C1CCCN(S(=O)(=O)c2ccc(F)cc2)C1 (configuration not stated)	-2%	-16%	18%[10 µM]	-23%	-15%	-21%	15%
Cc1ccc(O)c(CCc2ccccc2)n1	u	-11%	16%[10 µM]	2%	-10%	-7%	7%
Cc1cc(N2CCOCC2)n2nc(-c3cccc(F)c3)cc2n1	10%	-10%	10%[10 µM]	-10%	1%	-1%	-3%
CCCS(=O)(=O)N1CCN(Cc2ccccc2OCC)CC1	-4%	-9%	-1%	0%	1%	1%	7%
C=CCNC(=S)N/N=C/c1cn(C)c2ccccc12	x	-6%[9.22 µM]	-20%[10 µM]	x	x	-27%	16%
COC(=O)CCC(=O)OC1(C)C(=O)C=C2C=C3CCCN3C=C2C1=O (configuration not stated)	12%[13.5 µM]	26%[9.22 µM]	-4%&7%[10 µM]	-3%[9.22 µM]	10µM*!	-6%[11.6 µM]	u
Cc1cccc(COCC(Cc2ccccc2)N2CCN(C(=O)c3cc(Cl)cc(Cl)c3)CCC2=O)c1 (configuration not stated)	4%	u	x	-23%	-17%	-3%	8%
COc1ccc(CNCCNC(=O)c2cccs2)c(OC)c1OC	u	-1%[9.22 µM]	-1%[10 µM]	x	-5%	-6%	-2%

Brought forward from above: two entries, then new ones.
SMILES	ALDH1A1 block	HTT aggregate	HTT cytoprotect	SMN2 splice up	Tau fibril ThT	Tau fluor counter	Tau fibril FP
Cc1cccc(COCC(Cc2ccccc2)N2CCN(C(=O)c3cc(Cl)cc(Cl)c3)CCC2=O)c1 (configuration not stated)	4%	u	x	-23%	-17%	-3%	8%
COc1ccc(CNCCNC(=O)c2cccs2)c(OC)c1OC	u	-1%[9.22 µM]	-1%[10 µM]	x	-5%	-6%	-2%
Cc1cccc(C)c1OCC(O)CN1CCCCC1 (configuration not stated)	0%	-15%	-24%	-17%	-3%	-6%	-3%
COc1ccc(N2C(N)=C(C#N)C(c3ccsc3)C3=C2CCCC3=O)c(OC)c1 (configuration not stated)	-3%	17%	x	1%	u	-23%	-10%
CC(=O)c1ccc(N2CCN(C(=S)Nc3ccccc3C(F)(F)F)CC2)cc1	-10%	9%	9%	-34%[inhibitor]	u	-16%	0%
Cc1cc(=O)oc(C)c1C(=O)NCC1CCCO1 (configuration not stated)	3%	-15%	-14%[1.9 µM]	11%	-2%	2%	8%
COc1cc(C(=O)NCc2cccc3ccccc23)ccc1OCc1ccccc1	-3%	-10%	-28%	0%	-3%	-27%	-10%
Cc1ccc([N+](=O)[O-])c(OCCCNCC(C)O)c1 (configuration not stated)	u	5%	-29%	-4%	-4%	2%	5%
CC(=O)Nc1nc(NC(=O)C(Cl)(Cl)Cl)n(-c2ccccc2)n1	-8%	10%[9.22 µM]	11%[10 µM]	x	-3%	5%	2%
O=C(NNc1nc2c(F)cccc2s1)c1cc(=O)c2ccccc2o1	-3%	-4%[9.22 µM]	-9%[10 µM]	x	5µM*	u	-9%
CC1CCN(CCOCCSc2ccc(Cl)cc2)CC1	-6%	2%[9.22 µM]	6%[10 µM]	x	-6%	-7%	u
CC1CCN(CC(=O)Nc2ccc(S(=O)(=O)NC3CC3)cc2)CC1	x	-12%[9.22 µM]	-17%[10 µM]	x	x	9%	4%
Cc1cc(C)c(C#N)c(SCSCc2ccccc2)n1	u	1%[9.22 µM]	-15%	-21%	-15%	-23%	u
CN(C)CCOc1ccc(C(C)(C)c2ccccc2)cc1	-16%	12%[9.22 µM]	3%[10 µM]	x	-4%	-4%	1%
CC1=C(C(=O)OC2CCCC2)C(c2coc3ccccc3c2=O)C2=C(CC(C)(C)CC2=O)N1 (configuration not stated)	u	-1%[9.22 µM]	-7%[10 µM]	x	-27%	-22%	2%
Cc1ccc(NCC(=O)N/N=C/c2ccc(C(=O)O)cc2)cc1	x	-8%[9.22 µM]	-14%[10 µM]	x	x	21%	-4%
CCCn1nc(NC(=O)CC(C)C)c2cc3ccccc3nc21	u	u	-86%[inhibitor][1.9 µM]	0%	-5%	-5%	-2%
O=C(CN1CCCCC1)NCC1(c2ccccc2)CCCC1	-4%	-4%[9.22 µM]	9%[10 µM]	x	-5%	9%[2.34 µM]	-14%
CC1CCN(S(=O)(=O)c2ccc(NC(=O)CN3CCN(c4ccccc4)CC3)cc2)CC1	-13%	-17%	-5%[0.074 µM]	-37%[inhibitor]	8%	-4%	-2%
COc1cc2c(cc1OC)CN(Cc1cc(OC)c(O)c(OC)c1)CC2	-12%	8%	x	12%	u	-12%	0%
COc1cccc(C2c3c(-c4ccccc4O)n[nH]c3C(=O)N2Cc2ccco2)c1 (configuration not stated)	x	13%[9.22 µM]	3%[10 µM]	x	-5%	u	-7%
Cc1cc(=O)n(C)c(=O)n1CCCCCCN1CCCC1	u	-4%	18%[10 µM]	7%	-1%	2%	4%
CCCCOc1ncnc2c1[nH]c1ccc(F)cc12	-7%	3.2µM*	-64%[inhibitor][0.074 µM]	-56%[inhibitor]	-7%	2%	5%
COc1cccc(N2CCN(C(=O)c3ccc4nc(N5CCCCC5)sc4c3)CC2)c1	u	u	8%	-22%	u	-24%	2%
O=C(/C=C/Nc1ccc(Oc2ccccc2Cl)cc1)c1ccco1	u	22%[9.22 µM]	-30%[1.9 µM]	16µM*	u	u	13%
CCOc1cc(/C=N\NC(=O)C2C(=O)NCC2c2ccccc2)ccc1OC (configuration not stated)	1%	-2%	x	-5%	-8%	-7%	-1%
COCCCNCCC(CCC(C)C)c1ccc2c(c1)OCO2 (configuration not stated)	x	-26%[9.22 µM]	-27%[10 µM]	x	-3%	-3%	8%
O=C(c1cccnc1)N1CCN(Cc2cccc(F)c2)CC1	u	-3%	-8%	-3%	-6%	-1%	-2%
CCOC(=O)C1CCN(C(=O)c2ccc(NS(=O)(=O)c3ccc(F)cc3C)cc2)CC1	1%	6%	-23%[10 µM]	1%	11%	7%	6%
O=C(CN1CCN(c2ncccn2)CC1)N1CCCC1	u	11%[9.22 µM]	9%[10 µM]	x	-6%	-3%	-4%
O=c1c2cc(Cl)cc(Cl)c2nc2n1CCC2	1%	-13%	7%	9%	0%	-1%	0%
O=C(c1ccc(Cl)c(Cl)c1)N1CCC(=O)N(C(COCc2ccc(Cl)cc2)Cc2ccccc2)CC1 (configuration not stated)	-11%	u	x	-19%	u	-14%	4%
CC1CCCC(NC(=O)CNCc2ccccc2F)C1C (configuration not stated)	u	-4%	-10%	12%	-6%	-6%	-5%
CC(=O)Nc1ccc(S(=O)(=O)N2CCN(Cc3ccccn3)CC2)cc1	u	15%	-3%	-10%	-12%	-6%	7%
c1cc2c(cc1OCCNC1CCCC1)CCC2	-12%	28%	-30%	-9%	-2%	-4%	-11%
CC(=O)Nc1cccc(C(=O)OCC(=O)NC(C)c2ccc(F)cc2)c1 (configuration not stated)	9%	13%	-3%[10 µM]	-17%	-2%	4%	1%
CC1(C)C2CCC(C2)C1(C)NC(=O)CNCc1cccs1 (configuration not stated)	u	-15%	-29%	-7%	-4%	1%	3%
COc1ccc(CCN(C)C(=O)C2CCN(Cc3cccc(OC)c3OC)CC2)cc1OC	-12%	0%[9.22 µM]	-1%[10 µM]	x	-13%	-10%	-9%
CCCN(CCC)CC(C)(C)NS(=O)(=O)c1ccc(Cl)cc1	x	-9%[9.22 µM]	-1%[10 µM]	x	-8%	-3%	2%
COc1ccc(NC(=O)c2cccnc2C(=O)O)c(OC)c1	u	-12%	-29%	2%	-4%	-7%	-4%
CCC(=O)Nc1cc(-c2cc3ccccc3oc2=O)ccc1OC	u	-4%	-37%[10 µM]	1.1µM*	-14%	-11%	0%
COc1ccc(/C=C(\C#N)C(=O)Nc2cccc3ncccc23)cc1OC	x	14%[9.22 µM]	10%[10 µM]	x	u	-19%	-3%
O=C(NCCc1nnc2ccc(NCc3cccnc3)nn12)c1ccccc1F	3%	-17%	-6%	-10%	4%	-4%	-13%
COc1ccccc1CN(C(=O)c1ccco1)C(C(=O)NC1CCCC1)c1ccncc1 (configuration not stated)	u	15%	-4%	17%	u	-6%	-3%
CC(C)CNC(=O)CCCc1ccccc1	-5%	-1%	-4%	18%	-13%	-2%	-9%
O=C(CCS(=O)(=O)c1ccccc1)Nc1nc2c(s1)CCCC2	u	17%	-26%	-6%	-11%	-11%	4%
COc1ccc(NS(=O)(=O)c2cccs2)cn1	9%	2%	x	7%	8%	5%	-2%
COc1ccc2c(c1)-c1nc(/N=C/c3ccccc3O)sc1CC2	28µM*	-2%	14%[10 µM]	-2%[1.84 µM]	32µM*	u	u
Cc1onc(-c2ccccc2)c1C(=O)NNC(=S)NC(=O)c1ccc(F)cc1	u	-30%	-2%[10 µM]	x	-14%	-16%	1%
CC(NC(=O)Cc1ccc(F)cc1)c1ccccc1 (configuration not stated)	10%	-2%	8%	1%	2%	7%	10%
O=C1C2C(C(=O)N1/N=C/c1cccc([N+](=O)[O-])c1)C1C=CC2C12CC2 (configuration not stated)	16µM*	23%	x	16%	-2%	-1%	3%
CCCCSc1nc(O)c(C2OC(=O)c3c2ccc(OC)c3OC)c(=O)n1-c1ccccc1 (configuration not stated)	-7%	12%[9.22 µM]	5%	-9%	u	-13%	u

More entries
SMILES	ALDH1A1 block	HTT aggregate	HTT cytoprotect	SMN2 splice up	Tau fibril ThT	Tau fluor counter	Tau fibril FP
COC(=O)CCCC1=CC2=CC(=O)C(C)(OC(=O)c3cccs3)C(=O)C2=CN1c1ccc(OC)cc1 (configuration not stated)	u	-21%[9.22 µM]	-26%&-12%[10 µM]	-10%[9.22 µM]	10µM*	-10%[11.6 µM]	u
CCC(=O)Nc1nc2ccccc2n1CCN(C)C	-4%	15%	-1%	1%	-7%	-8%	-4%
Cc1[nH]n(-c2ccccc2)c(=O)c1/C=N/NC(=O)c1ccoc1C	u	7.1µM*	-62%[inhibitor][10 µM]	x	u	-11%	u
CSC1=N/C(=C/c2ccc(-n3cncn3)cc2)C(=O)N1	x	36%[9.22 µM]	5%[10 µM]	x	-15%	-6%	-16%
Cc1cc(C)c(C)c(OCCOCCNCc2ccccc2)c1	-9%	0%	-14%[10 µM]	-39%[inhibitor]	-2%	4%	12%
CC(C(=O)NCC1(c2ccccc2)CCCC1)N1CCOCC1 (configuration not stated)	9%	-15%	9%	x	-1%	-1%	3%
CCOc1cc(NC(=O)c2cccs2)c(OCC)cc1NC(=O)c1cccnc1	1%	12%[9.22 µM]	4%[10 µM]	2%	-4%	-3%	-5%
N#CCCN(CCC#N)C(=O)c1ccc2c(c1)OCO2	13%	-2%	-4%	x	6%	4%	7%
